Arbovirus inh: blocks arbovirus infection; arbovirus infection cell-based antiviral screen; inhibition, % at 10 µM; 200,000 compounds, 0.37% hits; AID 1251;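 active means inhibition from about 30%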;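 further: bluetongue infection of BSR cells; cell survival read as ATP light after 72 h; 0% = infected wells without compound and 100% = uninfected wells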
YopH PTP inh: YopH (Yersinia) phosphatase inhibition; fluorescence Ex485/Em525; inhibition, %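 (about 10 µM by stock and volumes)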; 140,000 compounds, 0.16% hits; AID 898;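 active means inhibition of 50% or more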;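 further: controls were vehicle for no effect and minimum signal wells for full effect; inactives centre near -20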
RecA intein inh: Mtb RecA intein splicing inhibition | P9WHJ3 | inhibition, %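 (about 9 µM by stock and volumes)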 | cell-free RecA intein splicing, fluorescence | 290,000 compounds, 0.75% hits; in the data active means inhibition above about 30%; inconclusive means no clear call, values can overlap the other calls;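 further: 0% = vehicle wells and 100% = reference inhibitor control wells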
Target sequence (P9WHJ3 whole entry, looked up): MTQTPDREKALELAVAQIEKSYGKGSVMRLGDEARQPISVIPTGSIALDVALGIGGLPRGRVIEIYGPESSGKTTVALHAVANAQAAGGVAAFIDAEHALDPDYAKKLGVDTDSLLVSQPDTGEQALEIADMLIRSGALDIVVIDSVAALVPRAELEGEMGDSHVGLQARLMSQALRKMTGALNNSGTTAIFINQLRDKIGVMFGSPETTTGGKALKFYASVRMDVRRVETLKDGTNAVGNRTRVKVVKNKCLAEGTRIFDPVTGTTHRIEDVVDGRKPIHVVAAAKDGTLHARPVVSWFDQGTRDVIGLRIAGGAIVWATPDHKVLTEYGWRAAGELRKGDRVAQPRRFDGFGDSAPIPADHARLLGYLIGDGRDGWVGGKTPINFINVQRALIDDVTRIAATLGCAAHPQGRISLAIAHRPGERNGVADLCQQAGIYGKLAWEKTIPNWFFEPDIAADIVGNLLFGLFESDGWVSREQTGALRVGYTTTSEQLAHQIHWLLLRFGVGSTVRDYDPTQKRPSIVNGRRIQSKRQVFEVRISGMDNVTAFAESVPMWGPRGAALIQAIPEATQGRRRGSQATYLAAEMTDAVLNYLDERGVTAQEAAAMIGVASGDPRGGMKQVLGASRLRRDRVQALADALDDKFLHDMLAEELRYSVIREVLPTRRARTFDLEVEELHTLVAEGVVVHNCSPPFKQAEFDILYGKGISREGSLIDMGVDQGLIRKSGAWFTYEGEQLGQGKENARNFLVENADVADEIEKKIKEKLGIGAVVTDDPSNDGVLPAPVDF
Mtb H37Rv: M. tuberculosis H37Rv growth inhibitors, H37Rv strain (AID 1626); M. tuberculosis H37Rv growth inhibition; higher % means a stronger effect; inhibition, % at 10 µM, or IC50 in µM where a hit was titrated; 220,000 compounds, 0.95% hits;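 active means confirmed in a dose series; inconclusive means inhibition above 80% but not taken into the dose series; inactive means below 80% or under 30% at every dose of the series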;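 further: bacteria incubated seven days before Alamar blue readout; 0% = bacteria only wells and 100% = bacteria with antibiotic wells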
Mtb betalactam: beta-lactam sensitization of Mtb H37Rv; M. tuberculosis H37Rv growth with meropenem, percent inhibition; hits of this screen are not shown here; inhibition, % at 25 µM; 330,000 compounds, 0.27% hits; AID 434955;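 active means about 74% or more and at least 40 points above the plate without the antibiotic, then above 30% in a dose series; inconclusive means first-round hits that could not be retested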;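 further: growth measured after seven days incubation then overnight dye step; 0% = bacteria only wells and 100% = bacteria with antibiotic; twin plates without the antibiotic show which effects depend on it; some results filed as inactive read as strong as hits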
Arbovirus inh repeat: recorded beside Arbovirus inh, whose call it bears; inhibition, %; measured here: 10K subset replicate screen; many hits read low in the repeat;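 first of two repeat runs on a subset; 0% = infected and 100% = uninfected wells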
Numbers without * were called inactive. Some of the compounds tested; count on the stated rates, not on these rows.

For Cc1ccc(N2CCN(c3ncccc3[N+](=O)[O-])CC2)c(C)c1 the results were RecA intein inh -0.4 and Mtb betalactam -2.
Screening CN(C)CCCNC(=O)c1ccc(/C=N/O)nc1 returned Arbovirus inh -6 and Mtb H37Rv -11%.
`COc1ccc(Cn2c(N)c(C#N)c3nc4ccccc4nc32)cc1` gave Arbovirus inh 1, YopH PTP inh -6, RecA intein inh -219 and Mtb betalactam 100.
Screening Cn1c2c(c3ccccc31)CCN1CCC[C@]21c1ccccc1 returned RecA intein inh 3.0 and Mtb betalactam 2.
CC(C)(C)NC(=O)CCCSc1nc2ccccc2s1 was read as Arbovirus inh -1, RecA intein inh 3.6, Mtb H37Rv -2% and Mtb betalactam 3.
`Cc1cc2c(cc1C)-c1nnc(-c3ccc4ccccc4n3)n1C(C)(C)C2` gave Arbovirus inh 4, YopH PTP inh -11, RecA intein inh 1.5 and Mtb betalactam -5.
COc1ccc2nc3cc(Cl)ccc3c(Nc3cc(C(C)C)c(O)cc3C)c2c1 was read as RecA intein inh 73*, Mtb H37Rv inconclusive and Mtb betalactam 100.
For Clc1ccc(-c2onc3c2CCCC3)cc1 the results were Arbovirus inh 3, YopH PTP inh -5, RecA intein inh 0.5, Mtb H37Rv 11% and Mtb betalactam 3.
Screening CCOC(=O)C(CC)n1cnc2c(nnn2-c2ccc(F)cc2)c1=O (centres undefined) returned RecA intein inh -1.5 and Mtb betalactam -9.
Screening O=c1[nH]c(CN2CCN(c3ccccc3O)CC2)nc2scc(-c3ccccc3Cl)c12 returned RecA intein inh 9.1, Mtb H37Rv 27% and Mtb betalactam 4.
Screening C=CCn1cc(C(=O)OCC)c(=O)c2cc(F)c(F)cc21 returned Mtb H37Rv 0% and Mtb betalactam -1.
O=C(NCc1cccnc1)c1ccc(-c2cc(Cl)ccc2Cl)o1 was read as Arbovirus inh 15, RecA intein inh 3.5, Mtb H37Rv -3% and Mtb betalactam 1.
CCOC(=O)N1CCN(Cc2oc(CO)cc(=O)c2O)CC1 was read as Arbovirus inh 2, YopH PTP inh -37, RecA intein inh 3.2, Mtb H37Rv -10% and Mtb betalactam -12.
`Cc1c(C(=O)O)oc2ccc(S(=O)(=O)N(CC(C)C)CC(C)C)cc12` gave Arbovirus inh 4, YopH PTP inh -50, Mtb H37Rv -11% and Mtb betalactam 8.
Screening Fc1ccc(-c2csc(=S)[nH]2)cc1 returned Arbovirus inh 3, RecA intein inh -1.3, Mtb H37Rv 1% and Mtb betalactam -5.
CNC(=O)CC(C(=O)O)c1ccc(OCC(C)C)cc1 (centres undefined) was read as Arbovirus inh 9, YopH PTP inh -3, RecA intein inh -2.0 and Mtb betalactam -1.
CCN(CC)c1ccc(C(=O)OCC(=O)NC2CCCCC2C)cc1 (centres undefined) was read as Arbovirus inh 2, YopH PTP inh -13, RecA intein inh -0.6, Mtb H37Rv 12% and Mtb betalactam 1.
`CCN(Cc1ccncc1)C(=O)CSc1ccc2ccccc2c1` gave Arbovirus inh 15, RecA intein inh 0.0, Mtb H37Rv 2% and Mtb betalactam -7.
Cc1ccc(OCCC(=O)OCC(=O)Nc2cc(C)nn2-c2ccccc2)cc1 was read as RecA intein inh 2.4 and Mtb betalactam 1.
`CCOC(=O)c1sc(NC(=O)/C=C/c2cnn(CC)c2C)c(C(=O)OCC)c1C` gave Arbovirus inh -20, YopH PTP inh -21, RecA intein inh -2.5, Mtb H37Rv 10% and Mtb betalactam 95.
For COc1ccc(-c2cc(C#N)nc(Oc3ccc(Cl)cc3)n2)cc1 the results were Arbovirus inh 12, YopH PTP inh 3, RecA intein inh 1.3, Mtb H37Rv 4% and Mtb betalactam 6.
Screening COc1ccc(C2C(C(=O)Nc3ccc4c(c3)OCCO4)c3ccccc3C(=O)N2C)cc1 (centres undefined) returned Arbovirus inh -2, YopH PTP inh -11, RecA intein inh -7.4, Mtb H37Rv -5% and Mtb betalactam 0.
`CCOc1ccc(NC(=O)CN(C)Cc2cc(=O)n3c(-c4ccccc4)csc3n2)cc1OCC` gave Arbovirus inh 2, RecA intein inh 2.6, Mtb H37Rv 5% and Mtb betalactam 1.
`COCc1cc(C)nc(SCC(=O)NC2CCCCC2C)c1C#N` (centres undefined) gave RecA intein inh 1.1 and Mtb betalactam -16.
`Cc1cccc(NC(=S)NC2CC3C=CC2C3)c1` (centres undefined) gave RecA intein inh -1.5 and Mtb H37Rv 7%.
Screening Cc1ccc(O)c(-c2cc(-c3ccccc3C)[nH]n2)c1 returned Arbovirus inh -31, YopH PTP inh -19 and RecA intein inh 17.
For O=C1OC(Cc2ccccn2)C(=O)C1=C1SCCS1 (centres undefined) the results were Arbovirus inh -4, YopH PTP inh -23, RecA intein inh -4.5, Mtb H37Rv -3% and Mtb betalactam -6.
Screening CCc1nnc(NC(=O)C(NS(=O)(=O)c2ccc3c(c2)OCCO3)C(C)C)s1 (centres undefined) returned Arbovirus inh 12, YopH PTP inh -4, RecA intein inh 0.3, Mtb H37Rv -5% and Mtb betalactam -4.
Screening CCc1ccc(-c2nc(SCC(=O)N(CC)C3CCS(=O)(=O)C3)n[nH]2)cc1 (centres undefined) returned RecA intein inh 0.6 and Mtb betalactam -15.
For CCc1cccc(NS(=O)(=O)c2ccc3c(c2)n(C)c(=O)n3C)c1 the results were RecA intein inh -3.4 and Mtb betalactam -1.
`Cc1ccc(-n2c(=O)c3c4c(sc3n(Cc3cc(=O)n5ccccc5n3)c2=O)CCC4)cc1C` gave Arbovirus inh -4, YopH PTP inh -29, RecA intein inh -0.7, Mtb H37Rv 13% and Mtb betalactam 5.
Screening O=C(NCc1ccc(F)cc1)N1CCN(S(=O)(=O)c2ccccc2F)CC1 returned RecA intein inh 0.1 and Mtb betalactam -5.
`COc1ccc(CN2CCCCC2c2cccnc2)cc1C` (centres undefined) gave Arbovirus inh 3, YopH PTP inh -47, RecA intein inh 5.4, Mtb H37Rv -3% and Mtb betalactam -5.
Screening Cc1ccc(-c2csc(NC(=O)c3ccc(Br)cc3)c2C(=O)O)cc1 returned RecA intein inh 2.9 and Mtb betalactam 37.
`O=C(NNc1nc2c(F)cccc2s1)C1=COCCO1` gave Arbovirus inh 16, RecA intein inh -13, Mtb H37Rv -11% and Mtb betalactam 1.
`Cc1cc(Cl)ccc1OCCNC(=S)NC(=O)c1cccnc1` gave RecA intein inh -0.4 and Mtb betalactam -4.
For Cc1ccccc1S(=O)(=O)Nc1nc2ccccc2nc1N1CCc2ccccc2C1 the results were Arbovirus inh 14, YopH PTP inh -42, RecA intein inh 2.6, Mtb H37Rv -6% and Mtb betalactam -3.
For COc1cc(/C=N/Nc2ccc(Cl)c(C(=O)O)c2)ccc1OC(=O)c1ccco1 the results were Arbovirus inh 2, RecA intein inh 25, Mtb H37Rv -4% and Mtb betalactam -2.
For O=C(Nc1ccccc1)c1ccc(S(=O)(=O)N2CCCCC2)cc1 the results were Arbovirus inh 2, YopH PTP inh -13, RecA intein inh 1.1, Mtb H37Rv 3%, Mtb betalactam 3 and Arbovirus inh repeat 6.
Screening CCNc1nc(Cl)nc(NC(C)C)n1 returned Arbovirus inh -4, YopH PTP inh -18, RecA intein inh 2.3, Mtb H37Rv -4% and Mtb betalactam -7.
For CCSc1n[nH]c2nc3c(c(=O)n12)C1(CCCC1)Cc1ccccc1-3 the results were Arbovirus inh 16, YopH PTP inh -5, RecA intein inh -25, Mtb H37Rv 1% and Mtb betalactam 7.
For O=C(CC1SC(=Nc2ccccc2)N(CCO)C1=O)Nc1ccccc1 (centres undefined) the results were Arbovirus inh 12, RecA intein inh -0.8, Mtb H37Rv -8% and Mtb betalactam -2.
Screening Fc1ccccc1-c1[nH]ncc1-c1nnnn1-c1ccccc1 returned RecA intein inh -1.1, Mtb H37Rv -11% and Mtb betalactam -1.
Screening NC(=O)c1ccc([N+](=O)[O-])cc1SCc1ccccc1 returned Arbovirus inh 2, YopH PTP inh 7, RecA intein inh 2.6, Mtb H37Rv 3% and Mtb betalactam -1.
Screening O=C(c1cccc(F)c1)n1nnc2ccccc21 returned Arbovirus inh -5, YopH PTP inh -37, RecA intein inh -0.4, Mtb H37Rv -6% and Mtb betalactam -4.
`CCC(CC)C(=O)c1c[nH]c(C(=O)NCc2ccncc2)c1` gave Arbovirus inh -2, RecA intein inh 0.6, Mtb H37Rv -6% and Mtb betalactam -2.
`CCCn1c(=O)c2ccccc2n2c(SCC(=O)NCc3cccs3)nnc12` gave Arbovirus inh 0, YopH PTP inh -24, RecA intein inh -0.7, Mtb H37Rv -3% and Mtb betalactam -4.
COc1ccc(CN2CCC(Oc3ccc(C(=O)N4CCCCC4)cc3)CC2)cc1C was read as RecA intein inh 1.6 and Mtb betalactam -1.
Screening Cc1cccc(C)c1OCc1cc(C(=O)N2CCN(c3ccccn3)CC2)no1 returned RecA intein inh -5.1 and Mtb betalactam 41.
COc1cccc(CNc2ccc3[nH]c(=O)[nH]c3c2)c1OCc1ccccc1Cl was read as RecA intein inh 11 and Mtb betalactam 11.
CN(Cc1ccccc1)C(=O)COC(=O)c1cncc(Br)c1 was read as Arbovirus inh 1, RecA intein inh -0.5, Mtb H37Rv -4% and Mtb betalactam -1.
For COc1ccc2c(c1OC)C(=O)N(c1cccc(C)c1)C2 the results were Arbovirus inh -8, YopH PTP inh -24, RecA intein inh -0.3, Mtb H37Rv 11% and Mtb betalactam 5.
Screening COc1ccc(CC(=O)N2CCC(n3nccc3NC(=O)C3CC3)CC2)cc1 returned RecA intein inh -1.8 and Mtb betalactam -2.
O=C(NCc1cccc(Br)c1)C1CC(c2ccc(C(F)(F)F)cc2)=NO1 (centres undefined) was read as RecA intein inh -4.3, Mtb H37Rv 19% and Mtb betalactam -5.
For CCOc1ccccc1C(=O)N1CCC(n2nnc3cc(C(F)(F)F)ccc32)CC1 the results were Arbovirus inh -5, YopH PTP inh -11, RecA intein inh 3.4, Mtb H37Rv -2% and Mtb betalactam 0.
NC(=S)N/N=C\c1c(OCc2ccccc2Cl)ccc2ccccc12 was read as Arbovirus inh -6, RecA intein inh 2.4, Mtb H37Rv 37% and Mtb betalactam 3.
For O=C(CCS(=O)(=O)c1cccs1)N1CCN(c2ccc(F)cc2)CC1 the results were Arbovirus inh -4, YopH PTP inh -34, Mtb H37Rv -1% and Mtb betalactam -1.
CN1CCN(S(=O)(=O)c2cccc(S(=O)(=O)c3cccc(S(=O)(=O)N4CCN(C)CC4)c3)c2)CC1 was read as Arbovirus inh 6, YopH PTP inh 1, Mtb H37Rv -6% and Mtb betalactam -24.
For COc1cccc(-c2nnc(SCC(=O)N3CCCC3=O)n2-c2ccccc2)c1 the results were Arbovirus inh 4, YopH PTP inh -14, RecA intein inh 0.9, Mtb H37Rv -9% and Mtb betalactam -2.
Cc1cc(/C=N/NC(=O)C(O)(c2ccccc2)c2ccccc2)c(C)n1-c1ccc(C(=O)O)cc1 was read as Arbovirus inh 1, YopH PTP inh 0, RecA intein inh 1.3, Mtb H37Rv 4% and Mtb betalactam 3.

The final four compounds of the section before open the next one.
For O=C(CCS(=O)(=O)c1cccs1)N1CCN(c2ccc(F)cc2)CC1 the results were Arbovirus inh -4, YopH PTP inh -34, Mtb H37Rv -1% and Mtb betalactam -1.
CN1CCN(S(=O)(=O)c2cccc(S(=O)(=O)c3cccc(S(=O)(=O)N4CCN(C)CC4)c3)c2)CC1 was read as Arbovirus inh 6, YopH PTP inh 1, Mtb H37Rv -6% and Mtb betalactam -24.
For COc1cccc(-c2nnc(SCC(=O)N3CCCC3=O)n2-c2ccccc2)c1 the results were Arbovirus inh 4, YopH PTP inh -14, RecA intein inh 0.9, Mtb H37Rv -9% and Mtb betalactam -2.
Cc1cc(/C=N/NC(=O)C(O)(c2ccccc2)c2ccccc2)c(C)n1-c1ccc(C(=O)O)cc1 was read as Arbovirus inh 1, YopH PTP inh 0, RecA intein inh 1.3, Mtb H37Rv 4% and Mtb betalactam 3.
For COC(=O)C1=C(C(=O)OC)[C@@H]2N(C)c3ccccc3[C@@]23C[C@@H](C(=O)OC)N(C(C)=O)C3=N1 the results were RecA intein inh -1.5, Mtb H37Rv -19% and Mtb betalactam -3.
Screening CCn1c(SCC(=O)Nc2cc(C)on2)nc2c1c(=O)n(C)c(=O)n2C returned Arbovirus inh 8, YopH PTP inh -38, RecA intein inh -1.1, Mtb H37Rv -11% and Mtb betalactam inconclusive.
Screening CC(C)C[C@H](NC(=O)OC(C)(C)C)C(=O)NCC1CCC(C(=O)N[C@@H](Cc2ccccc2)C(=O)O)CC1 (some centres undefined) returned RecA intein inh -1.0 and Mtb betalactam inconclusive.
For CCCc1nnc(NC(=O)CCC(=O)NC2CCCCCC2)s1 the results were RecA intein inh 0.6 and Mtb betalactam -9.
CC(C)(C)NC(=O)C1CCN(C(=O)c2ccc(Br)cc2)CC1 was read as Arbovirus inh 0, YopH PTP inh -22, RecA intein inh -2.2, Mtb H37Rv -3% and Mtb betalactam -13.
Screening COc1ccc(NC(=O)c2ccc(N3CCOCC3)nc2)cc1 returned RecA intein inh -1.2 and Mtb betalactam 4.
